Bfl-1 A1 inh = inhibitors of the anti-apoptotic protein A1, read as caspase activation | AID 2462 | caspase activation, % (no concentration beside the values) | 330,000 compounds, 0.066% hits | MEF A1-2A-BIM cells, Caspase-Glo 3/7 luminescence, 3 h; percent of clofoctol response, vehicle zero;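 active = over half of replicate activation scores above 10%, or exactly half above 10 with the replicate mean above 10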;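 also: wells of about 30 µL received 50 nL stock; many hits fall short of the cut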
Ecoli rRNA inh = inhibitors of bacterial rRNA selective over humanized ribosomes | E. coli WT GFP vs humanized-ribosome RFP mutants, fluorescence, 24 h; hits give low values; DMSO median 0, no signal -100 | GFP signal change (wild-type ribosome), % (test concentration not listed) | 350,000 compounds, 1.6% hits;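 active = significant combined selectivity score with lowered wild-type GFP, culture density cut under 30%, mutant RFP and density less affected; inactive = any of these conditions unmet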; also: one replicate is shown; some compounds called inactive have numbers as strong as hits
FGF22 binding = binders of recombinant human FGF22 by thermal shift. Q9HCT0. SYPRO orange fluorescence; percent of sucrose octasulfate shift, DMSO zero. calls only at 9.99 µM. 340,000 compounds, 1.5% hits. AID 651658;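 active = melting point raised past a set limit in the mean and every replicate; three in four hits are not shown here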
Target sequence (Q9HCT0 whole entry, looked up): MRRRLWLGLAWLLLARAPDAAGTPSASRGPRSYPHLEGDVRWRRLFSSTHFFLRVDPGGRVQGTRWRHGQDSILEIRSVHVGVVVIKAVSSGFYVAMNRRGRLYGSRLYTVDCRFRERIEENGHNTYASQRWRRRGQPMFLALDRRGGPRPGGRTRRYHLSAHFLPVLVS
Ecoli growth = blocks Escherichia coli growth. OD600 absorbance (test concentration not listed). AID 1053175. OD600, 23 h; hits give low values. 330,000 compounds, 0.21% hits;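 active = OD600 absorbance below the run mean of sample wells minus 3.6 SD, in any replicate, cut at about 0.56 in these data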;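 also: stock transfer was 300 nL into about 60 µL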
Beta cell apopt = blocks beta cell apoptosis; INS-1E cytokine-induced death, ATP luminescence, 48 h; percent of positive-control rescue, neutral wells zero; protection from apoptosis, % (no concentration beside the values); 300,000 compounds, 0.8% hits;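 active = all replicates at 75% or more, or half of them and the mean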;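 also: 0% = cytokine-treated negative control wells and 100% = positive control rescue; higher means more ATP so stronger rescue from cytokine killing; wells of about 40 µL received 100 nL stock; the first replicate is given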
UCH37 inh = human UCH37 deubiquitinating enzyme inhibition; 330,000 compounds, 0.33% hits; AID 588478; Q9Y5K5; purified proteasome/UCH37, Ub-AMC cleavage fluorescence; inhibition, % (test concentration not listed);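 active = mean of two replicates above 20%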;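 also: 0% = compound-free wells with enzyme and 100% = wells lacking proteasome; stock transfer was 100 nL into about 20 µL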
Target sequence (Q9Y5K5 whole entry, looked up): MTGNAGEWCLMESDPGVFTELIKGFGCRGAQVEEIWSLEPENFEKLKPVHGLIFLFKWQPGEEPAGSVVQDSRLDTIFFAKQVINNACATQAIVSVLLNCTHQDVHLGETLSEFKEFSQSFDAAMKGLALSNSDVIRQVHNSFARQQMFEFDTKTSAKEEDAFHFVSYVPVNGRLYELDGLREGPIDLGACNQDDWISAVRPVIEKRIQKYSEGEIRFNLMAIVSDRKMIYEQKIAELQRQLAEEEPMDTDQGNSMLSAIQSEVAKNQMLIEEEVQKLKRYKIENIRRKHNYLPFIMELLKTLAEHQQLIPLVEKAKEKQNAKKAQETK
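System: Proteasome-associated human UCH37 deubiquitinase; Input: 0.15 nM proteasome in added enzyme buffer; Also added: Ub-AMC substrate from 1 µM stock; Incubation: 30 min compound-proteasome preincubation then 25 min substrate reaction, room temperature; Detection: fluorescence, ex 355 nm, em 460 nm; Read-out: % inhibition of Ub-AMC cleavage fluorescence; Benchmarks: no-proteasome and no-compound wells.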
AF4-AF9 inh = MLL-AF4/AF9 protein interaction inhibition. 350,000 compounds, 0.47% hits. AlphaScreen, biotin-AF4 peptide binding to FLAG-AF9. AID 651704. P42568. inhibition, % at 10 µM;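 active = every replicate reaching a set inhibition limit, whatever the replicate mean, cut at about 25% in these data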;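 also: 0% = plate neutral control median and 100% = total signal loss; the record names both 10 and 1 µM as test concentration; the first replicate is given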
Target sequence (P42568 whole entry, looked up): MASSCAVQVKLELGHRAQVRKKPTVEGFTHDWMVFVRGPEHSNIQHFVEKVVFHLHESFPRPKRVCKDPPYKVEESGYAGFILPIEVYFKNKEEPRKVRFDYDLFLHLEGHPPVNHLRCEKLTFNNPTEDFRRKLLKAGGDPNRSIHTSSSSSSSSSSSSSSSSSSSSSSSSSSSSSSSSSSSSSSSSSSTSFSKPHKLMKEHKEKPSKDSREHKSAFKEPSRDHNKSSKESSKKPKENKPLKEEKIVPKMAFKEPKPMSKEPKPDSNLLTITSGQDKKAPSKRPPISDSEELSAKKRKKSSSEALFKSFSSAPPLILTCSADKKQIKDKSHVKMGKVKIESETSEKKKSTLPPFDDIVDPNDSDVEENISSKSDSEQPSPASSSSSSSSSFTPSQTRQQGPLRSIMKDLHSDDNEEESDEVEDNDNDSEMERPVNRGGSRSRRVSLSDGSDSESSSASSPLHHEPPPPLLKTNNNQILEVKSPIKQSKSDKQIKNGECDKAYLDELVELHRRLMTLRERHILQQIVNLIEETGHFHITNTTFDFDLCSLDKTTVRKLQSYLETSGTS
T cruzi repl = T. cruzi replication inhibition; inhibition, % (no concentration beside the values); 300,000 compounds, 1.4% hits; T. cruzi beta-gal in NIH3T3, luminescence, 90 h; AID 1885;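 active = mean inhibition across valid replicates above about 55%, limit read from the data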;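 also: signal also drops with host cell toxicity which is not excluded here; 0% = plate median of DMSO wells and 100% = zero luminescence signal; higher percent means less beta-gal luminescence so fewer parasites; stock transfer was 50 nL into about 50 µL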
Ecoli rRNA inh OD600 = further read-out of Ecoli rRNA inh, marked with its call; OD600 change, %; measured here: OD600 growth;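 optical density of the mix in the first replicate; 0 = DMSO median and -100 = no signal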
Ecoli rRNA inh RFP = also measured in Ecoli rRNA inh; calls as there; RFP signal change, %; measured here: RFP humanized mutant strains;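 first replicate; 0 = DMSO median and -100 = no signal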
An asterisk follows results filed as active; i = inactive; / = not tested or not shown. An excerpt; rates above refer to the full screens.

SMILES	Bfl-1 A1 inh	Ecoli rRNA inh	Ecoli rRNA inh OD600	Ecoli rRNA inh RFP	FGF22 binding	Ecoli growth	Beta cell apopt	UCH37 inh	AF4-AF9 inh	T cruzi repl
NC(=O)C1CCN(C(=O)c2ccc(F)c(S(=O)(=O)N3CCOCC3)c2)CC1	-0.6	5	16	-0.4	i	0.68	0	-2.9	-3.7	/
Clc1ccccc1-c1ccc(/C=N/Nc2nncc(-c3ccccc3)n2)o1	0.7	-4	1	1.0	i	/	13	/	0.1	7
COc1cccc(OCC(O)CN2CCN(c3ccc(F)cc3)CC2)c1 (centres undefined)	-0.9	1	2	0.5	i	0.66	2	5.3	0.6	6
FC(F)Oc1ccccc1/C=N/n1cnc2ccccc21	-0.3	-10	-9	1.7	i	/	-2	/	0.2	5
Cn1nccc1C(=O)Nc1ccccc1C(=O)O	-3.7	/	/	/	/	0.81	/	5.8	/	-9
COc1ccc(-c2csc(N(CC(C)C)C(=O)c3ccco3)n2)cc1	0.1	0	-1	28	i	0.68	/	0.3	1.5	22
COc1ccc(NC(=O)CN2C(=O)NC3(CCCC3)C2=O)cc1Cl	0.7	2	5	-0.6	i	0.67	-8	5.4	-0.3	7
CC(CCCC(C)(C)O)CC1C2=C(CCCC2=O)OC2=C1C(=O)CCC2 (centres undefined)	-0.2	-5	13	-0.8	i	0.7	-2	1.4	-9.1	5
CCOC(=O)CSc1nnc(CNC(=O)c2ccccc2OC)n1-c1ccc(OC)cc1	-0.5	/	/	/	/	0.64	/	2.4	/	0
O=C(NC1CC1)C1=C[C@H](c2coc3ccccc3c2=O)C[C@H](OCc2ccc(CO)cc2)O1	2.0	/	/	/	i	/	0	0.9	-2.2	2
Cc1ccc(-n2ncc3c2CC(C)(C)CC3NC(=O)c2c(C)noc2C)cc1 (centres undefined)	0.1	-16	-16	2.5	i	0.66	3	0.6	-1.8	1
CS(=O)(=O)N(CCc1ccccc1)CC(=O)NCc1ccccc1Cl	0.4	3	-10	-1.8	i	0.66	/	-1.1	-1.6	4
CC(=O)Nc1cccc(NC(=O)CSc2nnc3ccc(-c4cccnc4)nn23)c1	-0.1	3	4	0.4	i	0.59	/	-0.5	-1.5	-6
COc1ccc(C(=O)C2CCN(C(=O)c3ccc(F)cc3)CC2)cc1	1.0	-16	-20	-4.0	i	0.67	-3	3.7	-3.6	-2
O=C(c1ccc(Cl)cc1)N1CCN(C(=O)C2CCCCC2)CC1	1.2	2	6	-0.5	i	/	2	/	1.3	4
Cc1ccc(NC(=S)NCCc2ccc(Cl)cc2)c(C)c1	-0.4	3	2	-1.5	i	0.63	4	5.2	2.7	8
Cc1ccc(N2CC(C(=O)Nc3ccc(S(=O)(=O)Nc4nccs4)cc3)CC2=O)cc1C (centres undefined)	0.5	7	3	3.8	i	0.63	-4	0.1	-1.4	-4
CC(=O)c1ccc(N2CCN(S(=O)(=O)c3ccc(-c4cnc(C5CC5)o4)cc3)CC2)cc1	-0.4	/	/	/	/	0.68	34	5.3	/	-30
C=C(C)COc1ccc(-c2[nH]ncc2Oc2ccc(OC)cc2)c(O)c1	0.3	-57	-77	-25	i	0.67	-9	3.2	3.5	9
NCC/C=C1/c2ccccc2CSc2ccccc21	-0.6	/	/	/	/	0.66	1	5.9	/	16
CCOCCCNCc1ccc(OCCC(C)C)c(OC)c1	-0.3	7	9	2.1	i	0.68	0	4.4	-8.2	63*
O=C(NC1=NCCS1)c1ccc(C(F)(F)F)cc1	-2.1	-1	3	-2.3	i	0.63	-4	2.1	-11	-4
Cc1cc(/C=C(\C#N)C(=O)NCc2ccco2)c(C)n1C1CCCC1	-0.7	/	/	/	/	0.64	/	-1.8	/	4
CC1=NN(C(C#N)c2c(C)nn(Cc3ccccc3)c2C)C(C)(C)C1 (centres undefined)	0.3	/	/	/	/	0.71	-9	1.5	/	-7

4 neighbouring records already listed, quoted:
SMILES	Bfl-1 A1 inh	Ecoli rRNA inh	Ecoli rRNA inh OD600	Ecoli rRNA inh RFP	FGF22 binding	Ecoli growth	Beta cell apopt	UCH37 inh	AF4-AF9 inh	T cruzi repl
CC(CCCC(C)(C)O)CC1C2=C(CCCC2=O)OC2=C1C(=O)CCC2 (centres undefined)	-0.2	-5	13	-0.8	i	0.7	-2	1.4	-9.1	5
CCOC(=O)CSc1nnc(CNC(=O)c2ccccc2OC)n1-c1ccc(OC)cc1	-0.5	/	/	/	/	0.64	/	2.4	/	0
O=C(NC1CC1)C1=C[C@H](c2coc3ccccc3c2=O)C[C@H](OCc2ccc(CO)cc2)O1	2.0	/	/	/	i	/	0	0.9	-2.2	2
Cc1ccc(-n2ncc3c2CC(C)(C)CC3NC(=O)c2c(C)noc2C)cc1 (centres undefined)	0.1	-16	-16	2.5	i	0.66	3	0.6	-1.8	1

New compounds follow.
SMILES	Bfl-1 A1 inh	Ecoli rRNA inh	Ecoli rRNA inh OD600	Ecoli rRNA inh RFP	FGF22 binding	Ecoli growth	Beta cell apopt	UCH37 inh	AF4-AF9 inh	T cruzi repl
CCn1c(SCC(=O)Nc2ccc(C)cc2)nc2nc3c(cc2c1=O)COC(C)(C)C3	-1.2	18	14	3.8	i	0.65	/	3.5	-3.3	/
COc1ccccc1C(=O)NCCC(=O)NCC(c1ccco1)N1CCCCC1 (centres undefined)	0.5	4	11	2.8	i	0.67	-1	0.9	-1.0	10
Cc1onc(-c2c(Cl)cccc2Cl)c1C(=O)NCC1CCCO1 (centres undefined)	0.0	2	-2	-1.5	i	0.67	-6	-1.2	-109	0
Cc1ccc2nc3c(c(C(=O)OCC(=O)N(C)C4CCS(=O)(=O)C4)c2c1)CCCC3 (centres undefined)	0.5	-18	-18	-1.3	i	0.69	2	-34	-0.1	3
O=C(Cn1nnc(-c2ccccc2F)n1)NCCc1ccccc1	0.1	7	2	1.1	i	0.7	-4	5.3	2.3	-4
CCc1ccccc1NC(=S)N(CCN(C)C)Cc1cccs1	0.7	-3	7	0.3	i	0.7	-2	3.7	1.8	-3
CC(C)C(C(=O)Nc1ccc(S(=O)(=O)N2CCOCC2)cc1)N1C(=O)c2ccccc2C1=O (centres undefined)	1.1	/	/	/	/	0.64	-10	7.2	/	-1
COc1ccc(-c2n[nH]c(=S)n2-c2ccc3c(c2)OCCO3)cc1OC	-1.4	8	15	3.6	i	0.65	3	0.4	-4.5	-17
CCCCCC(=O)N1CCCC(c2nc(-c3ccc(OC)cc3)no2)C1 (centres undefined)	0.6	/	/	/	/	0.72	/	1.2	/	8
O=C(COC(=O)c1ccc2c(=O)n3c(nc2c1)CCC3)Nc1ccc(OC(F)F)cc1	-0.1	21	18	3.9	i	0.68	-1	-7.5	-1.5	12
COc1ccc(Cc2nnc(N/N=C/c3ccc(N(C)C)cc3)[nH]c2=O)cc1OC	0.7	-2	8	-3.4	i	/	-6	/	-22	1
Cc1ccc(-c2noc(CN(C(=O)C(c3ccccc3)c3ccccc3)C(C)C)n2)cc1	0.1	/	/	/	/	0.73	36	4.6	/	50
Fc1cccc(NC(=S)N2CCCC2)c1	1.0	10	4	6.7	i	0.69	2	2.4	1.2	-9
CC1CCN(S(=O)(=O)c2ccc(NC(=O)CN3C(=O)NC(C)(c4ccccc4)C3=O)cc2)CC1 (centres undefined)	0.0	-7	-26	14	i	0.66	-4	2.6	-18	3
O=C(c1ccco1)N1CCN(Cc2ccccc2F)CC1	0.5	-1	0	0.1	i	0.73	-2	-0.5	-0.6	-21
COc1ccc(NC(=O)Cn2cnc3ccccc3c2=O)cc1OC	-0.5	-10	-19	17	i	0.65	/	0.5	0.8	6
Cc1ccc2oc(-c3ccco3)cc(=O)c2c1	-2.5	8	2	1.8	i	0.69	4	-190	-1.1	-17
COc1ccc(S(=O)(=O)N(C)CC(=O)N2CCN(c3ccc(F)cc3)CC2)cc1OC	0.8	/	/	/	/	0.73	-1	0.5	/	-9
CC1CCCCN1CC(=O)Nc1ccc(Oc2ccccc2)cc1 (centres undefined)	1.6	/	/	/	/	0.71	/	2.8	/	14
Cc1oc(-c2cccc(F)c2)nc1CN1CCCN(C(=O)c2ccco2)CC1	-0.8	-4	-4	1.7	i	0.69	1	1.1	-17	-1
Cc1cc(C)c(-n2c(SCc3nc4ccccc4s3)n[nH]c2=O)c(C)c1	1.0	-24*	-19*	4.2*	i	0.69	-23	1.2	/	23
O=C(c1cc2cc(Cl)ccc2oc1=O)N1CCCCCCC1	0.0	2	3	-4.7	i	0.7	-8	-0.3	-4.9	-3
CCOC(=O)c1ccc2nc(C)c3c(c2c1)OC(C)C3 (centres undefined)	0.5	/	/	/	/	0.66	2	-23	/	16
COc1cc(NS(=O)(=O)c2ccc(NC(=S)NC(=O)c3sc4ccccc4c3Cl)cc2)nc(OC)n1	0.1	/	/	/	/	0.69	0	3.3	/	1
COC(=O)C1=C(Cn2cnc3ccccc32)NC(=O)NC1c1cc(C)ccc1C (centres undefined)	0.4	/	/	/	/	0.68	-4	/	/	0
COc1cc(C2NC(=O)NC(C)=C2C(=O)OC2CCCCC2)cc(Cl)c1O (centres undefined)	0.1	-32	-28	3.6	i	0.71	4	5.8	1.8	-12
Cc1ncc([N+](=O)[O-])n1Cc1ccc(F)cc1	-0.3	-4	-4	10	i	0.72	-5	6.6	0.6	-13
Cc1ccccc1-c1nc2sc(-c3ccccc3)cc2c(=O)o1	0.5	/	/	/	/	0.72	-1	-2.5	/	-5
CCOC(=O)c1ccccc1N/C=C1\CCCC1=O	-0.2	/	/	/	/	0.69	1	1.6	/	3
CN(C)c1nc(N)nc(Cn2ccnc2)n1	0.6	/	/	/	/	0.71	3	1.7	/	-8
O=C(COC(=O)/C(=C/c1cccs1)c1cccs1)NC(c1ccccc1)c1ccccc1	0.1	/	/	/	/	0.72	/	9.8	/	-8
CC(NC(=O)COC(=O)c1ccc2ccccc2n1)c1ccccc1 (centres undefined)	-0.9	15	6	3.0	/	0.72	-5	2.1	2.6	/
CCOc1ccc(Oc2ccc(-c3nnc(-c4ccccc4)o3)cc2[N+](=O)[O-])cc1	-0.2	/	/	/	/	0.71	2	2.6	/	-4
Cc1c(Cl)cccc1Nc1nc(N)nc(CSc2ncccn2)n1	-0.8	/	/	/	/	0.72	-1	4.2	/	-11
O=[N+]([O-])c1ccc(N2CCN(c3cccc(Cl)c3)CC2)nc1	-1.9	10	15	-2.0	i	0.63	5	0.8	3.0	-12
COc1ccc(C(=O)N[C@H](C(=O)OCC(=O)NC(=O)c2cccn2C)C(C)C)cc1	-1.8	-4	-8	-8.2	i	0.71	-2	1.6	2.3	-12
Cc1cc(C)n(CC(C)C(=O)O)n1 (centres undefined)	0.2	19	5	0.1	i	0.69	-2	0.4	-2.9	-13
Cc1ccc(O)c(NC(=S)NC(=O)CC(C)C)c1	0.1	/	/	/	/	0.64	-7	0.5	/	-8
COc1ccccc1NC(=S)NC(=O)Cc1ccccc1	1.3	6	10	5.9	i	0.67	/	8.3	-0.3	-14
COc1ccc(C(=O)OC(C)C(=O)NC2CCCCC2C)cc1S(=O)(=O)N1CCOCC1 (centres undefined)	0.1	3	0	1.2	i	0.66	3	4.3	0.2	-2
Cc1ccc(/C=C/C(=O)NC2CCCCCCC2)o1	1.4	/	/	/	/	0.72	6	2.9	/	-7
O=C(CC(=O)c1ccncc1)c1ccccc1	/	-11	-45	-6.7	i	0.68	/	10	4.0	/

Compound activity: PubChem, several laboratories
